MgrA-DNA mod = S. aureus MgrA activity modulators, primary screen, biochemical, S. aureus Newman, fluorescence polarization; AID 602314, 2012; MgrA-DNA binding; 84,000 tested, 0.13% active; inhibition, %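 (about 10 µg/mL by stock and volumes)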;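 active = above 50% in either of two replicates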;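 note: 0% = protein plus DNA without compound and 100% = DNA alone without protein; higher means less MgrA bound to DNA so lower polarization; one replicate is shown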
S aureus helic = inhibitors of S. aureus replicative helicase, primary screen, biochemical, fluorescence unwinding readout | purified S. aureus helicase, fluorescence unwinding assay; about half of the hits fall short of the stated cut | 120,000 tested, 0.05% active | inhibition, %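 (tested at about 80 µM)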 | AID 485395, 2010 | replicative DNA helicase (DnaC/DnaB), Staphylococcus aureus;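 active = both duplicates at 50% or more, or one of them with a favoured structure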;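 note: 0% = mean of negative control wells and 100% = mean of positive control wells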
Numbers without * were called inactive; nt = no result given.

SMILES	MgrA-DNA mod	S aureus helic
COc1ccc(C(=O)N/C(=C\c2ccccc2)C(=O)NCc2ccco2)cc1	1.2	4
CC(C)(C)NC(=O)Nc1ccc(Cl)cc1	-2.4	nt
COc1cc2[nH]c(=S)nc(NCc3cccnc3)c2cc1OC	nt	17
CC(=O)N/C(=C\c1ccc(Cl)cc1)C(=O)O	-5.0	nt
O=C1OCCC1Sc1cccc2cccnc12 (centres undefined)	6.2	-3
C=CCn1c(SC)nnc1-c1ccc2ncccc2c1	-1.9	nt
CC(=O)N1Cc2ccccc2CC1C(=O)NCc1ccc2c(c1)OCO2 (centres undefined)	nt	-7
CC(NC(=O)c1cc2c(s1)CS(=O)(=O)C2)c1ccccc1 (centres undefined)	nt	15
CN(CC(=O)Nc1ccc(Cl)cc1)CC(=O)Nc1ccc(C(N)=O)cc1	nt	7
Oc1ccccc1C(C#Cc1ccccc1)N1CCOCC1 (centres undefined)	-0.2	2
CC(C(N)=O)N1C(=O)c2cccc3cccc1c23 (centres undefined)	0.2	11
Nc1ccc(Cc2nc3ccccc3[nH]2)cc1	1.6	3
CCOc1ccc(N2CC(C(=O)OC(C)C(=O)c3ccccc3)CC2=O)cc1 (centres undefined)	-1.4	-2
O=C(Cc1ccc(Br)cc1)c1ccc2c(c1)Cc1ccccc1-2	1.7	nt
O=C(O)/C(=C/c1ccc2c(c1)OCO2)NC(=O)c1ccccc1	-5.8	nt
O=C(Nc1ccc(-c2nc3ccccc3[nH]2)cc1)C1CC1	nt	9
CNCc1c(C)nn(C2CCS(=O)(=O)C2)c1C (centres undefined)	nt	-6
COc1ccc(C2=NN(C(=O)CCl)C(c3nc4ccccc4[nH]3)C2)cc1 (centres undefined)	0.7	nt
CCCN(CCC)C(=S)NC1CC2C=CC1C2 (centres undefined)	-0.6	nt
C/C=C/c1c(F)c(F)c(Oc2ccc(OC)cc2)c(F)c1F	3.3	-3
C/C=C/C(=O)OCc1cc(=O)oc2cc(O)ccc12	nt	-5
CN(C)c1ccc(C=Nc2nonc2-c2ccccc2)cc1	-0.6	nt
CC1CN(C(=O)CSc2ncnc3ccccc23)CC(C)O1 (centres undefined)	nt	-4
Cc1nn(Cc2ccccc2Cl)c2sc(C(=O)Nc3nccs3)cc12	nt	6
Clc1cccc(-n2ncc3c(SCCN4CCCCC4)ncnc32)c1	nt	9

Part of the list above, with two lines to a compound:
Order of results: MgrA-DNA mod	S aureus helic
> Nc1ccc(Cc2nc3ccccc3[nH]2)cc1
→ 1.6	3
> CCOc1ccc(N2CC(C(=O)OC(C)C(=O)c3ccccc3)CC2=O)cc1 (centres undefined)
→ -1.4	-2
> O=C(Cc1ccc(Br)cc1)c1ccc2c(c1)Cc1ccccc1-2
→ 1.7	nt
> O=C(O)/C(=C/c1ccc2c(c1)OCO2)NC(=O)c1ccccc1
→ -5.8	nt
> O=C(Nc1ccc(-c2nc3ccccc3[nH]2)cc1)C1CC1
→ nt	9
> CNCc1c(C)nn(C2CCS(=O)(=O)C2)c1C (centres undefined)
→ nt	-6
> COc1ccc(C2=NN(C(=O)CCl)C(c3nc4ccccc4[nH]3)C2)cc1 (centres undefined)
→ 0.7	nt

Next section:
SMILES	MgrA-DNA mod	S aureus helic
Cc1cc(C(=O)N(CCC#N)Cc2cccs2)no1	0.0	nt
Cc1ccc(OCCn2cc(/C=C3/C(=O)Nc4cc(Cl)ccc43)c3ccccc32)cc1C	26	-483
COc1cc(OC)c(NC(=O)C2c3ccccc3C(=O)N(C)C2c2c[nH]c3ccccc23)cc1Cl (centres undefined)	nt	18
Nc1n[nH]c(CNC(=O)c2ccccc2)n1	-0.2	-8
COc1cc(C=C2C(=O)N(C)C(=O)N(C)C2=O)ccc1OCCOc1ccc(C)cc1	-1.8	nt
Cn1nnc2c(N3CCCc4ccccc43)ncnc21	nt	-7
O=S1(=O)C=C(Nc2ccccc2)CC1	0.7	-2
COC(=O)c1ccc(NC(=O)COC(=O)c2cc3ccccc3o2)cc1	-1.8	8
CCN(CC)c1ccc(C(=O)OCC(=O)N2CCCC2)cc1	-1.5	12
CC(C)(CC(=O)O)C(CCC(=O)O)C(=O)O (centres undefined)	3.6	nt
O=C(NCCN1CCOCC1)c1ccc2c(c1)CCN2S(=O)(=O)c1ccc(Br)cc1	nt	22
Nc1ccccc1C1C(=O)CSC1=O (centres undefined)	1.8	3
O=C(COC(=O)c1cc[n+]([O-])cc1)Nc1ccc(Cl)c(C(F)(F)F)c1	1.3	-35
N#Cc1c(-c2ccc(Cl)cc2)c2c([nH]c1=O)-c1ccccc1SC2	nt	-77
O=C(C1CCN(S(=O)(=O)c2cccc3nsnc23)CC1)N1CCN(c2ccccc2Cl)CC1	nt	-21
COC(=O)CN1C(=O)c2ccc(C(=O)OC)cc2C1=O	nt	12
CC1CCCN(S(=O)(=O)c2cccc3c(S(=O)(=O)N4CCCC(C)C4C)cccc23)C1C (centres undefined)	-1.6	17
Cn1c(=O)[nH]c2c(nc(-c3ccccc3)n2C)c1=O	4.8	-15
FC(F)(F)C1(C(F)(F)F)N=C2C=CC=CN2C(c2ccccc2)=N1	-0.3	4
O=C(c1cc(F)c(F)cc1Cl)N1CCN(c2ncccn2)CC1	0.6	-11
Clc1ccc2nc(N3CCc4ccccc43)c3nncn3c2c1	nt	17
Cc1cccc(NCc2c(C#N)c3ccccc3n2C)c1	-0.8	17
CC(=O)Nc1cccc(-c2nn3c(C)nnc3s2)c1	-4.6	12
CCOc1cc(CNC2CCN(Cc3ccccc3)C2)ccc1OCC(=O)N(C)C (centres undefined)	nt	5
COc1cc2c(cc1OC)C(COc1cc(C)cc(C)c1)N(C(=O)Cc1cccs1)CC2 (centres undefined)	-1.2	4
Additional entries
SMILES	MgrA-DNA mod	S aureus helic
Cc1cc(C)c2c(-n3cccc3)nn(Cc3ccc(C(=O)N4CCCC4)cc3)c2n1	nt	5
CC(=O)OC(C)(C)C(=O)/C=C/c1ccccc1	0.0	0
CN(c1nc(-c2ccccc2)cs1)C1CCS(=O)(=O)C1 (centres undefined)	nt	6
CN(C)c1ccc(C(=O)OCc2cc(=O)oc3cc(O)ccc23)cc1	nt	5
Cc1cccc(C)c1NC(=O)CCN1CCCCC1	4.3	nt
Cc1ccc(C(=O)Nc2c3c(nn2-c2ccccc2)CSC3)cc1	2.8	8
Nc1c(NC2CCCCC2)c2ccccc2oc1=O	nt	9
COC(=O)CC1C(=O)NC(C)=C1C(=O)OC (centres undefined)	0.6	nt
C=C(C)C(=O)Nc1cc(NC(=O)C(=C)C)cc(C(=O)O)c1	-3.2	1
Cc1nn(CC(=O)O)c2c1C1C(C2)C1(C)C (centres undefined)	0.5	-3
CN1CCN(CC(O)COC(C(F)(F)F)C(F)(F)F)CC1 (centres undefined)	nt	1
c1ccc(CSc2nnc3ccc(-c4ccc5c(c4)OCO5)nn23)nc1	nt	18
O=S1(=O)CCC(N(S(=O)(=O)c2ccc(F)cc2)S(=O)(=O)c2ccc(Cl)cc2)C1 (centres undefined)	2.2	-3
COc1ccc(NC(=O)Nc2ccc(OC)c(OC3CCCC3)c2)cc1OC1CCCC1	-0.8	nt
Cc1ccc(CSC2=NCCCN2)cc1C	3.3	nt
COc1nc(C)[nH]c(=O)c1N	nt	-13
O=C(Nc1ccc2c(c1)ncn2C1CCCCC1)c1cc2ccccc2o1	1.5	15
Cc1cc(C(=O)CSc2nncn2C)c(C)n1CC1COc2ccccc2O1 (centres undefined)	nt	2
O=C(CN1C(=O)C2(OCCCO2)c2ccccc21)NCCc1ccccc1	-0.6	2
COc1ccccc1-c1nn2c(C)nnc2s1	nt	-8
N#CC(C(N)=O)=C1CCCCC1	nt	17
CCOC(=O)c1ccc2c(c1)C(=O)N(C1CCCCC1)C2=O	1.1	9
Cc1nn(C)cc1CN1CCN(C(=S)NCCc2ccccc2)CC1	-0.6	12
C=CCn1c(SCC(=O)O)nnc1-c1ccc2c(c1)OCO2	-0.8	-4
COc1ccc2c(c1)c1c(c(=O)n(Cc3ccccc3)c(=O)n1C)n2C	nt	16

Quoted at random: four records from the list, in no set order.
SMILES	MgrA-DNA mod	S aureus helic
COc1nc(C)[nH]c(=O)c1N	nt	-13
Cc1nn(CC(=O)O)c2c1C1C(C2)C1(C)C (centres undefined)	0.5	-3
Cc1cc(C)c2c(-n3cccc3)nn(Cc3ccc(C(=O)N4CCCC4)cc3)c2n1	nt	5
COc1ccc(NC(=O)Nc2ccc(OC)c(OC3CCCC3)c2)cc1OC1CCCC1	-0.8	nt

(list continues)
SMILES	MgrA-DNA mod	S aureus helic
C/C(Cc1nc2ccccc2[nH]1)=N/NC(=O)c1ccccc1	4.7	11
COc1ccc(NC(=O)c2ccc(O)cc2)cc1	0.7	-3
O=C(O)C1CCN(C(=O)c2ccccc2C(=O)N2CCC(C(=O)O)CC2)CC1	nt	4
O=C1CN(C(=O)c2ccc3c(c2)OCO3)c2ccccc2N1	nt	-11
CC(C)(C)NC(=O)N1CCN(c2cc(C(F)(F)F)ccn2)CC1	3.8	nt
CCOC(=O)C1CCCN(S(=O)(=O)c2ccc(-c3ccc(=O)[nH]n3)s2)C1 (centres undefined)	nt	29
O=C(c1ccc2nc(N3CCOCC3)sc2c1)N1CCCC1	-0.6	1
Oc1c(C(c2ccccc2Cl)N2CCCCC2)ccc2cccnc12 (centres undefined)	6.0	8
CCCC(=O)N(c1cccc(Cl)c1)C1C=CS(=O)(=O)C1 (centres undefined)	0.8	15
CNC(=S)N1CCc2ccccc2C1	-3.2	4
C=C1COC(=O)N1Cc1ccccc1Cl	-2.0	nt
CC(C)NC(=O)c1ccccc1CCc1ccccc1	-2.4	-3
O=S(=O)(N/N=C/c1ccsc1)c1ccc(Cl)s1	nt	21
CCCc1nc2ccccc2c(C(=O)OCC(=O)NC2CC2)c1CC	1.1	-13
COc1ccc(S(=O)(=O)c2cn(C)c3ccccc3c2=O)cc1	nt	17
CC1=C(C(=O)N2CCCCC2)C(c2ccc(N(C)C)cc2)C2=C(CCCC2=O)N1 (centres undefined)	-0.7	6
COC(=O)c1sc(N2CCCC2)c(S(=O)(=O)C(C)C)c1N	-1.7	nt
O=C(c1ccc(Cl)cc1)N1CCC(C(F)(F)F)CC1	-1.5	nt
CC(C)NC(=O)C1CC(=O)N(Cc2ccccc2)C1 (centres undefined)	nt	-16
CCOC(=O)N1CCC(NC(=O)CSc2cc(C)nc3c(-c4ccccc4OC)c(C)nn23)CC1	-0.4	3
CC(=O)NC(O)C(=O)c1ccccc1 (centres undefined)	-1.9	6
Cc1ccc(S(=O)(=O)N(CCC#N)c2ccc(Br)cc2)cc1	-2.2	-11
O=C(CSc1nnc(-c2c[nH]c3ccccc23)n1CC1CCCO1)c1ccc(Cl)s1 (centres undefined)	nt	-3
CCOC(=O)N1CCc2c(sc(NC(=O)c3ccccc3)c2C#N)C1	nt	-4
CC(C)(C#N)Nc1ccccc1	-1.4	16
(cont.)
SMILES	MgrA-DNA mod	S aureus helic
Cn1c(=O)c2c(nc(NC3CCCCC3)n2Cc2ccc(Br)cc2)n(C)c1=O	1.5	nt
CC(=O)Oc1ccc(OC(C)=O)c(C2=C3C(=O)N(CCc4c[nH]c5ccccc45)CC(=O)N3CCC2)c1	nt	28
COC(=O)c1ccc(OCCOc2ccc(C(=O)OC)cc2)cc1	2.2	-9
Cc1ccc(-n2cc(-c3ccccc3)nc2SCC(=O)NCCc2ccccc2)cc1	-0.4	-2
Cc1cc(F)ccc1S(=O)(=O)NCC1CC2CCC1C2 (centres undefined)	4.2	1
CC(=O)Oc1ccc(-n2c(C)cc(/C=C3\C(=O)NC(=S)N(c4ccc(C)cc4)C3=O)c2C)cc1	2.1	nt
NN/C(=N\S(=O)(=O)c1ccccc1)NNc1ccccc1	nt	-34
O=C1c2cccc3c([N+](=O)[O-])ccc(c23)C(=O)N1Cc1cccnc1	60*	nt
N#C/C(=C\c1cccnc1)c1cccc(C(F)(F)F)c1	-0.3	nt
CCN(CC)CCN=Cc1c(O)n(-c2ccccc2C)c(=O)[nH]c1=O	6.2	15
Cc1ccc(C)n1-c1ccc2ncsc2c1	nt	-13
Cc1nc2ccccc2n1CC(=O)OCC(=O)C(C)(C)C	nt	-10
O=C(NC1CCN(Cc2ccccc2)CC1)c1ccc(-n2cccn2)cc1	-1.1	nt
CCOC(=O)/C(C#N)=C1/C=CC(Cl)=NN1	-2.4	10
Nc1ccc(SC(C(F)(F)F)(C(F)(F)F)C(F)(F)F)cc1	nt	-7
O=S(=O)(NCc1ccccc1)c1cc(C(F)(F)F)cc(C(F)(F)F)c1	-1.1	nt
COc1ccc(N2CCN(S(=O)(=O)c3c(C)noc3/C=C/N3CCOCC3)CC2)cc1	nt	13
CCOC(=O)N1CCC(NCc2c(C(=O)O)c(C)n(Cc3cccc(C)c3)c2C)CC1	nt	20
COc1cc2c(cc1OC)C(C(=O)Nc1ccccn1)C(c1cccnc1)N(C)C2=O (centres undefined)	nt	30
COc1ccccc1Cn1c(=S)[nH]c2cc(C(=O)NCCN(C)C)ccc2c1=O	nt	22
CC(C)Nc1ncnc2sc3c(c12)CCCC3	-0.8	nt
COc1cccc(N=Cc2ccccc2O)c1	1.4	13
COc1cc(C2OC(c3cc(C)ccc3[N+](=O)[O-])=NN2C(C)=O)cc(OC)c1OC (centres undefined)	-1.1	nt
O=C(CCSCc1ccccc1Cl)NC1CCCCC1	-1.0	4
CC(=O)Nc1nnc(-c2c(-c3c(Cl)cccc3Cl)noc2C)o1	0.8	nt
Following part:
SMILES	MgrA-DNA mod	S aureus helic
NC(=O)c1ccc(CN2CCOCC2)cc1	-4.9	12
COc1cc(CO)c(-c2c[nH][nH]c2=O)cc1OC	-2.5	nt
COc1ccc(CCNC2CC(=O)N(CCc3ccc(OC)c(OC)c3)C2=O)cc1 (centres undefined)	1.9	-2
Cc1cc2ncn(CN3CCN(c4ccc(C(F)(F)F)cn4)CC3)c2cc1C	nt	11
CN1CCN(C(=O)c2cn(-c3ccccc3)nc2-c2cccnc2)CC1	-2.8	14
NC(=O)c1sccc1NC(=O)C(F)(F)F	2.1	nt

Some of the compounds tested (hit frequency here may not be typical).
